# Screening results deposited in PubChem by several laboratories.
# MT stabilizer: microtubule stabilizers in HeLa cells. HeLa tubulin immunostaining HCS, 24 h; share of cells brighter than vehicle mean+2SD. % tubulin-high responders, % at 10 µM. 200,000 tested, 0.83% active. AID 2205;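 active = plate Z-score above 3 for both tubulin-high and condensed-nucleus cell shares, with cell loss under 80%, at 10 µM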;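 also: anti alpha tubulin signal scored within the nucleus-defined area of each cell; some results filed as inactive read as strong as hits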
# TNAP activation fold: stimulation of alkaline phosphatase TNAP activity – biochemical, luminescent, no phosphate acceptor, uHTS, primary screen (AID 1001) | purified TNAP, luminescent activation assay, no phosphate acceptor; higher activation fold means a stronger effect | activation fold at 20 µM; hits with a dose series show EC50 in µM | 200,000 tested, 0.03% active; in the data active = activation fold from about 3, or a potency from the dose series; inactive = the rest, 99 in 100 with activation fold below about 1.6; also: many of its hits are not listed in these tables
# Autophagy HCS: alters autophagy in cells; 190,000 tested, 0.98% active; calls only at 10 µM (by protocol); AID 463193; MEF GFP-LC3 puncta imaging; test concentration mostly 10 µM;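 active = percentage of spot-positive cells more than 3 SD above its plate mean, without a fluorescence outlier flag or 80% toxicity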;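 also: spot-positive cell cutoff set from DMSO-treated cells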
# Lipid droplet: modulators of hepatic lipid droplet formation | AML12 mouse hepatocytes, oleate lipid droplets, BODIPY imaging | inhibition, % at 6.5 µM | 240,000 tested, 0.4% active | AID 1656;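 active = lipid droplet intensity inhibited by at least 50%, with more than 500 cells counted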
#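 System: AML12 hepatocytes (mouse). Probe or stimulus: oleic acid at 100 µM to induce lipid droplet formation. Times: overnight treatment with compound plus oleate. Detection: Image-based BODIPY and DAPI two-channel analysis. Evaluation: percent inhibition of filter-corrected integrated lipid droplet intensity per well.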
# Insulin prom up: MIN6 insulin promoter up-regulation. z-score at 5 µM. AID 1625. 190,000 tested, 0.3% active. MIN6 insulin promoter-GFP reporter, high-content imaging; active compounds read high;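 active = z-score above 3 at 5 µM with at least 500 cells counted in the well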
# T cell HTS: modulates CD8 T cell binding to vesicles. 2C CD8+ T cell-vesicle binding, flow cytometry; active compounds read low. calls only at 7 µM. 330,000 tested, 0.068% active. AID 2052;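 active = response, share of CD8 T cells binding vesicles, and their 90th percentile fluorescence all below set limits, cut at about 80% in these data, passing the limit was not always enough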
#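 System: murine 2C transgenic CD8+ T lymphocytes; also added: QL9-loaded Drosophila micro-vesicles; times: binding 1.5 h at 37 °C; measured by: flow cytometry, PE anti-B7-1 (FL2) versus Alexa647 anti-CD8 (FL8), PFA-fixed; control set: Peptide-free naked vesicles (low) and QL9 vesicles with 0.7% DMSO vehicle (high)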
# Insulin prom up cell count: second read-out of Insulin prom up, no call of its own (marks repeat the call); cell count; measured here: cytotoxicity, nuclei count;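 total cells summed across four imaged fields per well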
# Lipid droplet cells 6.5 µM: also measured in Lipid droplet; calls as there; cell count; measured here: cell count, cytotoxicity flag;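 cells counted across two imaged fields per well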
# T cell HTS vesicle-bound %: also measured in T cell HTS; calls as there; double positive events, %; measured here: CD8+ vesicle-bound cell fraction;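 binding gate set so that unloaded-vesicle control wells show 10% double positive cells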
# MT stabilizer Hoechst-high %: second read-out of MT stabilizer, no call of its own (marks repeat the call); % Hoechst-high responders; measured here: nuclear condensation Hoechst responders;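 share of cells brighter than vehicle mean plus two SD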
# MT stabilizer cytotoxicity %: also measured in MT stabilizer; calls as there; toxicity, %; measured here: cytotoxicity by cell density;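 0% = mean cell density of plate MIN control wells and 100% = no cells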
# Autophagy HCS cell loss 18 h: recorded beside Autophagy HCS, whose call it bears; toxicity, %; measured here: cell loss, nuclei count;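 cell loss after 18 h compound exposure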
# * marks the source's active call; other numbers are inactive results; i = inactive; x = not tested or not shown. The list is partial; the hit share may differ from the screen's.
SMILES,MT stabilizer,MT stabilizer Hoechst-high %,MT stabilizer cytotoxicity %,TNAP activation fold,Autophagy HCS,Autophagy HCS cell loss 18 h,Lipid droplet,Insulin prom up,T cell HTS,T cell HTS vesicle-bound %,others
COc1ccc(-c2nc(CS(=O)(=O)CC(=O)NCCc3cc(OC)ccc3OC)c(C)o2)cc1,3.5,2.7,22.3,1,i,18.7,x,x,i,26.2,
CC(C)Cn1c(-c2csc3c2CCCC3)n[nH]c1=S,1.6,1.2,8.5,1,i,0.6,x,x,i,12.9,
CC(C)OCCCn1c(=S)[nH]c2ccc(N3CCOCC3)cc2c1=O,2.7,1.5,5.1,1,i,9.0,4.4,0.4,i,34.6,Insulin prom up cell count=1068;Lipid droplet cells 6.5 µM=708
CCOc1cc(NC(=S)Nc2cccc(OC)c2)c(OCC)cc1NC(=O)c1ccc(C)cc1,3.1,2.7,7.8,1,i,-29.4,x,x,i,26.1,
CCC(=O)Nc1ccc(/C(C)=N\NC(=O)c2ccc(C)s2)cc1,3.0,2.4,3.7,1,i,16.8,x,x,i,57.3,
O=C(Cn1cccc1)NCc1cccs1,6.0,1.9,2.4,1.2,i,13.2,x,0.84,i,40.0,Insulin prom up cell count=1665
Cc1cc2c(ncn2Cc2ccccc2)c([N+](=O)[O-])c1C,1.3,1.3,7.5,1.1,i,8.0,x,x,i,20.2,
CC1Cc2ccccc2N1C(=O)C1CCCN(S(=O)(=O)c2cccc3nsnc23)C1 (stereo unspecified),4.1,4.0,6.5,1,i,-9.6,x,x,i,34.9,
Cc1ccc(-c2nc3ccccc3[nH]2)cc1NC(=O)c1sc2ccccc2c1Cl,2.0,1.8,10.0,1,i,72.6,x,x,i,51.6,
CCOC(=O)Cc1c(C)nc2c(-c3ccccc3)c(-c3ccccc3)[nH]n2c1=O,2.8,1.5,1.6,1,i,-24.0,x,x,i,39.7,
CCc1ccc(CSc2nccn2-c2ccccc2)cc1,1.2,2.4,12.0,1,i,9.6,x,x,i,20.5,
COC(=O)c1ccccc1NC(=O)Oc1ccc(F)cc1,1.5,1.2,6.8,1.1,i,24.2,x,x,i,23.9,
O=C(Cn1cncn1)NCc1ccccc1Br,2.6,1.7,8.0,1,i,-27.7,x,x,i,52.5,
CS(=O)(=O)n1nc(-c2ccccc2)nc1N,2.1,1.3,7.3,1.1,i,-0.5,13.9,x,i,13.7,Lipid droplet cells 6.5 µM=730
CCCNC(=O)Cn1cnc2sc(C(=O)NCCN(CC)CC)c(C)c2c1=O,5.5,1.9,9.0,1,i,-0.7,x,x,i,38.9,
Cc1cc(C)cc(CSCC(=O)N/N=C/c2ccc(OCC(=O)NCc3ccco3)cc2)c1,2.0,1.0,3.9,1.1,i,-5.2,x,x,i,11.5,
COc1cc(OC)nc(Oc2ccccc2C(=O)Oc2cccc(C)c2)n1,3.5,2.0,10.3,1,i,2.0,x,x,i,21.5,
O=c1[nH]c(=O)n(CCOc2ccc(Cl)cc2)cc1Br,4.1,3.4,8.7,1.1,i,14.9,x,x,i,56.6,
COc1ccc(-c2cn3c(C)c(C(=O)NC(C)C)sc3n2)cc1,1.1,1.8,4.6,1.1,i,-2.0,x,x,i,27.5,
Cc1ccc(Cn2c(SCC(=O)NCC3CCCO3)nc3c(sc4ccccc43)c2=O)cc1 (stereo unspecified),1.9,1.1,7.8,1.1,i,-7.3,15.0,0.34,i,25.2,Insulin prom up cell count=901;Lipid droplet cells 6.5 µM=795
Cc1ccc(Cn2c(C)cc3c(c2=O)C(c2cccs2)C(C#N)=C(N)O3)cc1 (stereo unspecified),3.2,2.4,7.0,1.1,i,7.9,x,x,i,15.1,
CC(=O)N1CCc2cc(S(=O)(=O)CCC(=O)Nc3c(C)n(C)n(-c4ccccc4)c3=O)ccc21,5.1,2.7,5.3,1.1,i,3.6,x,x,i,43.9,
O=C(/C=C/c1cccc([N+](=O)[O-])c1)NCCN1CCOCC1,2.0,1.7,7.1,1,i,0.9,x,x,i,12.4,
O=S(=O)(NCCOCC(F)(F)F)c1ccc2oc3ccccc3c2c1,4.5,0.8,8.8,1.1,i,-4.6,x,x,i,58.9,
CCCNC(=O)CC(NS(=O)(=O)c1ccc(Cl)cc1)c1ccco1 (stereo unspecified),3.7,2.6,4.3,1.1,i,5.0,x,x,i,35.2,
Cc1cccc(Nc2nc3c(c(=O)n(C)c(=O)n3C)n2CC(O)CO)c1 (stereo unspecified),2.1,1.4,0.1,1,i,-1.2,x,x,i,27.9,
COC(Cc1n[nH]c(=S)n1-c1ccc(Cl)cc1)OC,3.2,1.5,3.8,1,i,-4.4,x,x,i,32.9,
CCS(=O)(=O)c1ccc2c(c1)N(S(=O)(=O)c1ccc(OC)cc1)CC(C(=O)O)O2 (stereo unspecified),4.0,1.4,0.1,1.1,i,-14.8,x,x,i,60.0,
Cc1ccc(C(=O)OCCc2c(C)[nH]n(-c3ccccc3)c2=O)cc1,2.7,1.5,7.1,1.1,i,27.1,x,x,i,21.6,

# Entries from the list above containing a carbonyl joined to an NH by a bond outside any ring (14):
SMILES,MT stabilizer,MT stabilizer Hoechst-high %,MT stabilizer cytotoxicity %,TNAP activation fold,Autophagy HCS,Autophagy HCS cell loss 18 h,Lipid droplet,Insulin prom up,T cell HTS,T cell HTS vesicle-bound %,others
COc1ccc(-c2nc(CS(=O)(=O)CC(=O)NCCc3cc(OC)ccc3OC)c(C)o2)cc1,3.5,2.7,22.3,1,i,18.7,x,x,i,26.2,
CCOc1cc(NC(=S)Nc2cccc(OC)c2)c(OCC)cc1NC(=O)c1ccc(C)cc1,3.1,2.7,7.8,1,i,-29.4,x,x,i,26.1,
CCC(=O)Nc1ccc(/C(C)=N\NC(=O)c2ccc(C)s2)cc1,3.0,2.4,3.7,1,i,16.8,x,x,i,57.3,
O=C(Cn1cccc1)NCc1cccs1,6.0,1.9,2.4,1.2,i,13.2,x,0.84,i,40.0,Insulin prom up cell count=1665
Cc1ccc(-c2nc3ccccc3[nH]2)cc1NC(=O)c1sc2ccccc2c1Cl,2.0,1.8,10.0,1,i,72.6,x,x,i,51.6,
COC(=O)c1ccccc1NC(=O)Oc1ccc(F)cc1,1.5,1.2,6.8,1.1,i,24.2,x,x,i,23.9,
O=C(Cn1cncn1)NCc1ccccc1Br,2.6,1.7,8.0,1,i,-27.7,x,x,i,52.5,
CCCNC(=O)Cn1cnc2sc(C(=O)NCCN(CC)CC)c(C)c2c1=O,5.5,1.9,9.0,1,i,-0.7,x,x,i,38.9,
Cc1cc(C)cc(CSCC(=O)N/N=C/c2ccc(OCC(=O)NCc3ccco3)cc2)c1,2.0,1.0,3.9,1.1,i,-5.2,x,x,i,11.5,
COc1ccc(-c2cn3c(C)c(C(=O)NC(C)C)sc3n2)cc1,1.1,1.8,4.6,1.1,i,-2.0,x,x,i,27.5,
Cc1ccc(Cn2c(SCC(=O)NCC3CCCO3)nc3c(sc4ccccc43)c2=O)cc1 (stereo unspecified),1.9,1.1,7.8,1.1,i,-7.3,15.0,0.34,i,25.2,Insulin prom up cell count=901;Lipid droplet cells 6.5 µM=795
CC(=O)N1CCc2cc(S(=O)(=O)CCC(=O)Nc3c(C)n(C)n(-c4ccccc4)c3=O)ccc21,5.1,2.7,5.3,1.1,i,3.6,x,x,i,43.9,
O=C(/C=C/c1cccc([N+](=O)[O-])c1)NCCN1CCOCC1,2.0,1.7,7.1,1,i,0.9,x,x,i,12.4,
CCCNC(=O)CC(NS(=O)(=O)c1ccc(Cl)cc1)c1ccco1 (stereo unspecified),3.7,2.6,4.3,1.1,i,5.0,x,x,i,35.2,

# An excerpt from above in order of heavy-atom count, largest number first.
SMILES,MT stabilizer,MT stabilizer Hoechst-high %,MT stabilizer cytotoxicity %,TNAP activation fold,Autophagy HCS,Autophagy HCS cell loss 18 h,Lipid droplet,Insulin prom up,T cell HTS,T cell HTS vesicle-bound %,others
CC1Cc2ccccc2N1C(=O)C1CCCN(S(=O)(=O)c2cccc3nsnc23)C1 (stereo unspecified),4.1,4.0,6.5,1,i,-9.6,x,x,i,34.9,
Cc1ccc(C(=O)OCCc2c(C)[nH]n(-c3ccccc3)c2=O)cc1,2.7,1.5,7.1,1.1,i,27.1,x,x,i,21.6,
CS(=O)(=O)n1nc(-c2ccccc2)nc1N,2.1,1.3,7.3,1.1,i,-0.5,13.9,x,i,13.7,Lipid droplet cells 6.5 µM=730
